Menin MLL FP FL: menin-MLL binding inhibition, fluorescein peptide; Fluorescence polarization, fluorescein-MLL peptide displacement from menin; FP activity change, % at 61.4 µM; 290,000 tested, under 10 active; AID 1766; inconclusive = falling polarisation curve, or a change in total fluorescence; inactive = total fluorescence flat and polarisation flat or rising; no compound was filed as active; the % refers to the polarisation; negative = inhibition;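 further: % of control where 0% means no effect; inhibitors lower the polarisation; unlabelled MLL peptide was the positive control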
CtBP-E1A blk: blocks the CtBP interaction with E1A; AlphaScreen GST-E1A/His-CtBP binding, 1536-well; active compounds read low; control for the full effect not named in the record; activity change, % (concentration not given with the values); 340,000 tested, 0.49% active; in the data active means activity change below about -65%; inconclusive means about -30% to -65%; inactive means above about -30%; further: on the % scale 0 is the no-effect control and ±100 the full control effect
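Homogeneous bead-based format: GST-tagged E1A captured on glutathione donor beads, His-tagged CtBP on nickel acceptor beads; compounds precede bead addition by 2 h at 37 °C.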
ClpP mod: qHTS Assay for Activators of ClpP; Potency, µM (titrated, usually from 57.5 µM), for the others: at the highest dose activity change, negative = active; 340,000 tested, 1.9% active; ATP-dependent Clp protease proteolytic subunit (Bacillus subtilis (strain 168)), P80244; purified B. subtilis ClpP, FRET peptide cleavage, 20 min; AID 651965, 2013; active = well fitted falling curve with a large enough effect; inconclusive = small, poorly fitted or top-dose-only effect; inactive = no such curve, though single readings can be large or run the other way; further: potency means the concentration at half of the fitted maximal effect; the source files actives as falling curves though it sought activators and does not explain the sign; nearly all actives have a fitted effect of over 65% in size; many hits overshoot -100%
Target sequence (P80244 whole entry, looked up): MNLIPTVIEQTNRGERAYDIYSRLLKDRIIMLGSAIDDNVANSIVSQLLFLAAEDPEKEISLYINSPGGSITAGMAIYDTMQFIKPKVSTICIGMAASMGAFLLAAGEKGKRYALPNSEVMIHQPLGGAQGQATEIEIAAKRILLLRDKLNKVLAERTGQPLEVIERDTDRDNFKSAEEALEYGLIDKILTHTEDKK
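Purified B. subtilis ClpP, 10 microg/mL final in Tris/HCl pH8 with KCl, BSA, glycerol and Tween-20, cleaved an Abz/nitrotyrosine-quenched decapeptide. Fluorescence (ex 320, em 430) was read at 0 and 20 min at room temperature. Delta was normalized to 5.8 microM ADEP and DMSO/no-enzyme controls.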
gsp antag: antagonizes gsp, the McCune-Albright syndrome mutation | gsp-mutant cells, cAMP HTRF, 30 min; control for the full effect not named in the record | Potency, µM (highest dose often 76.9 µM), inactives show at the highest dose activity change, negative = inhibition, usual class: inhibitors | 340,000 tested, 0.4% active | AID 624288; active = falling curve of any shape with a large fitted effect; inconclusive = falling curve, mostly with a smaller effect; inactive = flat or rising curve; cell line not stated here;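 further: intracellular cAMP measured with PDE inhibitor Ro 20-1724 present during compound exposure; potency means the concentration at half of the fitted maximal effect; on the % scale 0 is the no-effect control and ±100 the full control effect; nearly all actives have a fitted effect of over 65% in size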
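HTRF cAMP read-out (cAMP-d2 plus anti-cAMP antibody-K in lysis buffer, 30 min RT). Before lysis, cells are exposed to compounds with […] for 30 min at 37C in DPBS containing Ca/Mg, BSA and Tween 20.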
Sfp inh: blocks B. subtilis Sfp PPTase activity | Potency, µM, for the others: max response, negative = inhibition, hits mostly inhibitors | Biochemical Sfp PPTase activity, qHTS | 310,000 tested, 3.5% active; active means well fitted inhibition curve with a large enough effect; inconclusive means small, poorly fitted or top-dose-only effect, or another doubt; inactive means no such curve, though single readings can be large or run the other way;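 further: the enzyme is Sfp with the accession as filed and its product quenches rhodamine fluorescence; potency means the concentration at half of the fitted maximal effect; 0% = enzyme reaction without inhibitor and -100% = no enzyme wells; top concentration of the series not given in the record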
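Reaction rates are the 30-min fluorescence difference (ex 525, em 598 nm) in wells containing 15 nM Sfp, 5 uM rhodamine-CoA and 12.5 uM BHQ-2-YbbR at pH 7.6 with 10 mM MgCl2.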
TRPV1 PAM: enhances activation of the human vanilloid receptor TRPV1 | TRPV1-expressing cells, Fluo-8 calcium influx, capsaicin EC20 potentiation; host cell line not named in the record; control for the full effect not named in the record | Q8NER1 | potentiation, % at 8.33 µM | 320,000 tested, 0.02% active; active means potentiation above 80%; inconclusive means 30% to 80%; inactive means below 30%; further: 0% is about no effect
Target sequence (Q8NER1 whole entry, looked up): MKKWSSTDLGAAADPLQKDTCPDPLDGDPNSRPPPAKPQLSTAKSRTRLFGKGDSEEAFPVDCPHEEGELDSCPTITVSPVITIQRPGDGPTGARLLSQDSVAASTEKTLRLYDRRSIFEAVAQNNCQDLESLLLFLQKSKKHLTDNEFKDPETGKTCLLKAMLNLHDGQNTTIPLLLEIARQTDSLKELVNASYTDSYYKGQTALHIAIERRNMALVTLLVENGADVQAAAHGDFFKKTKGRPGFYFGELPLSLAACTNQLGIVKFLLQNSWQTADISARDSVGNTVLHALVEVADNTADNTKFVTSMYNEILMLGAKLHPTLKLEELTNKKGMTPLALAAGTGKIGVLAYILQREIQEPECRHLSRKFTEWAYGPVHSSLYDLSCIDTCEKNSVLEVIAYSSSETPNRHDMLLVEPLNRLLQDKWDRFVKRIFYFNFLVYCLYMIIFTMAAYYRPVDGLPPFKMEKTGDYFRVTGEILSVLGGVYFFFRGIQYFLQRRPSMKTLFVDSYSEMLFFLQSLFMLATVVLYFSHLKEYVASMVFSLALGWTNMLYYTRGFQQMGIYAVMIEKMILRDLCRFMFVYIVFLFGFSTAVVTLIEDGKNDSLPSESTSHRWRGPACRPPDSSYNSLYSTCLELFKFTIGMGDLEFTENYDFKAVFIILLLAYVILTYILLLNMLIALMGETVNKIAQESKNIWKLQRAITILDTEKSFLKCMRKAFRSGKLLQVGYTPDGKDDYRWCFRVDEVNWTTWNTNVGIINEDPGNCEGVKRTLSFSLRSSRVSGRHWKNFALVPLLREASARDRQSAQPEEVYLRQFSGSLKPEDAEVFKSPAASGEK
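Cells expressing TRPV1 were dye-loaded with Fluo-8 and read kinetically: 10 s baseline, 3 min after compound (agonist portion), then 2 min after EC20 capsaicin (allosteric enhancer portion). Calcium-bound dye fluorescence at 480/520 nm.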
gsp agonist: gsp mutant agonism. 340,000 tested, 0.13% active. gsp mutant cells, cAMP HTRF, 30 min; control for the full effect not named in the record. AID 624287. Potency, µM (doses to about 76.9 µM), without a hit: at the highest dose activation (cAMP increase), most hits filed as activators; active = well fitted activation curve with a large enough effect; inconclusive = small, poorly fitted or top-dose-only effect, or another doubt; inactive = no such curve, though single readings can be large or run the other way; cell line not stated here;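 further: phosphodiesterase inhibitor Ro 20-1724 added with compounds to block cAMP breakdown; potency means the concentration at half of the fitted maximal effect; nearly all actives have a fitted effect of over 60% in size; about a fifth of the inactives were tested at one dose only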
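Cells stably selected in G418 were plated at 2000/well, grown 16-24 hr, then given compounds in DMSO with the PDE inhibitor […] (300 uM solution added) for 30 min at 37C; cAMP was read by HTRF.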
* hit, by the source's call; ? = inconclusive; . = not tested or not shown; & = joins results of further samples; [ ] = remark or other dose.

SMILES | Menin MLL FP FL | CtBP-E1A blk | ClpP mod | gsp antag | Sfp inh | TRPV1 PAM | gsp agonist
O=C(NCC1CCCO1)/C(=C/c1ccccc1)NC(=O)c1ccccc1 (stereo not given) | 1.5 | . | 0.9% | -9% | 14% | -3 | -5%
COc1ccc(CC(=O)N/N=C(\C)c2cccc(NC(=O)C3CC3)c2)cc1 | -3.4 | -11 | -1.3% | -16% | 3% | 8 | 8%
Fc1ccccc1NC(=S)N1CCC(c2ccccc2)C1 (stereo not given) | 4.3 | -12 | . | -3% | 15% | -4 | -13%[15.4 µM]
CS(=O)(=O)Nc1ccc(C(=O)NCc2cccnc2)cc1 | 1.5 | 12 | -0.7% | 4% | 14% | -2 | -6%
CCC(=O)c1ccc(OCC(=O)NCCCN2CCOCC2)cc1 | . | 0 | . | 1% | . | . | 11%[15.4 µM]
Cc1ccc(S(=O)(=O)N2CCOC2CNC(=O)C(=O)NCCc2c[nH]c3ccccc23)cc1 (stereo not given) | -0.4 | . | -1.7% | ? | 17% | 10 | -8%
O=[N+]([O-])c1ccc(CN2CCN(c3ccc([N+](=O)[O-])cc3)CC2)cc1 | 0.4 | -1 | ? | -9% | -28% | 12 | 5%[15.4 µM]
COc1cccc(C2/C(=C(/O)c3ccccc3)C(=O)C(=O)N2CCCC(=O)O)c1 (stereo not given) | -1.6 | -1 | -2.9% | 4% | 5% | -1 | 4%
COc1cc(Br)cc(CN2CCN(c3ncccn3)CC2)c1O | -2.6 | -1 | -0.7% | 1% | -6% | -14 | 5%
COc1ccc(CCNC(=O)CN2C(=O)COc3ccc(S(=O)(=O)N4CCCC4)cc32)c(OC)c1 | -11 | -7 | -0.1%&2.0% | -10% | 7% | 9 | -21%
CC(O)c1nc2ccccc2n1Cc1ccc([N+](=O)[O-])cc1 (stereo not given) | 0.7 | 8 | -1.1% | 15% | 3% | 10 | -8%
Cc1ccc(Nc2c(-c3ccccn3)nc3ccc(C)cn23)cc1 | -0.8 | . | -6.3% | 2% | -6% | -16 | -8%
CN(C)[C@@H]1C(=O)C(C(N)=O)=C(O)[C@@]2(O)C(=O)C3=C(O)c4c(O)ccc(Cl)c4[C@@H](O)[C@H]3C[C@@H]12 | ? | -14 | -1.5% | -1% | -17% | 7 | .
O=C(/C=C/c1ccc2c(c1)OCO2)Nc1nc2ccc(F)cc2s1 | 1.0 | . | -4.4% | 8% | -3% | 13 | -32%[inhibitor]
CC(C)CCNC(=O)C1CCN(S(=O)(=O)c2ccc3c(c2)CCC(=O)N3)CC1 | 0.1 | 2 | -0.7% | -10% | 9% | 0 | -39%[inhibitor]
OCCC1CN(Cc2cccc3nccnc23)CCN1Cc1ccc(F)cc1 (stereo not given) | 2.2 | . | 1.8% | 1% | 1% | 4 | -2%
CC(Sc1ccc(Cl)cc1)C(=O)N(C)CC(=O)Nc1ccc(N2CCOCC2)cc1 (stereo not given) | . | -8 | . | 1% | . | -1 | -26%[15.4 µM]
CCOc1cc(S(=O)(=O)N2CCC(Cc3ccccc3)CC2)c(OCC)cc1-n1cnnn1 | -1.4 | -5 | 14µM* | -12% | -4% | -10 | 4%
CCCCCCCC(=O)NN1CCOCC1 | 4.1 | 2 | 0.7% | 3%[15.4 µM] | 11% | 4 | -41%[inhibitor]
Cc1[nH]n(C(N)=S)c(=O)c1N=Nc1cccc([N+](=O)[O-])c1C | 0.3 | . | 2.2% | -26% | 12% | -2 | -4%
Cc1nc(C(=O)Nc2cc(F)cc(Cl)c2)sc1C1(C)CC(c2ccccc2)=NO1 (stereo not given) | . | -21 | -7.0% | -1% | . | . | -1%
O=C(Nc1ccc(F)cc1)Nc1ccc([N+](=O)[O-])cn1 | -1.4 | 0 | . | . | -5% | 9 | 20%[15.4 µM]
COc1ccc(C2c3cc(OC)c(OC)cc3CCN2C2CC(=O)N(c3ccccc3)C2=O)cc1OC (stereo not given) | 1.2 | 1 | 2.5% | 3% | 0% | 6 | 15%
O=C(NCCCN1CCOCC1)c1cccnc1SCc1ccccc1Cl | -2.1 | . | 1.0% | 8% | -13% | 15 | -40%[inhibitor]
C=CCn1c(C)cc(C2=NNC(=Nc3ccc(C)cc3)SC2)c1C | 6.3 | -23 | . | 6% | 79µM* | 11 | ?
Cc1nccn1-c1c2c(c(C#N)c3nc4ccccc4n13)CCCC2 | . | 10 | . | 6% | . | . | 6%[15.4 µM]
O=C(Nc1ccc2c(c1)OCCO2)c1ccccn1 | 0.6 | . | 0.5% | 2% | 3% | -27 | -24%
CCOC(=O)C1CCCN(c2oc(-c3ccc(F)cc3)nc2C#N)C1 (stereo not given) | -0.7 | 9 | 4.8% | 7% | 5% | -17 | -2%
CCN1C(=O)NC(c2cc(Br)ccc2OC)C(C(=O)OC)=C1C (stereo not given) | 0.6 | 4 | 2.2% | -5% | -5% | 3 | 15%
O=C(CSc1n[nH]c(=O)n1-c1cccnc1)Nc1ccccc1Cl | . | -15 | -4.1% | -18% | 15% | 7 | 2%[15.4 µM]
CC1(C(=O)N/N=C/c2ccccc2)CC1(Cl)Cl (stereo not given) | 0.8 | -15 | -10% | 11% | 10% | 6 | 1%[15.4 µM]
CN(C)C(CNC1CC(C)(C)NC(C)(C)C1)c1cccc(F)c1 (stereo not given) | -1.5 | -5 | . | 9% | 9% | -10 | -2%
CCc1ccc(-c2nc(SCC(=O)N(CCOC)c3c(N)n(Cc4ccccc4)c(=O)[nH]c3=O)n[nH]2)cc1 | . | -3 | -2.7% | 4% | 13% | 14 | -1%[15.4 µM]
C#Cc1ccc(C(=O)NCc2ccc(N3CCCC3=O)cc2)cc1 | 0.6 | . | 0.6% | -7% | 13% | 29 | -37%[inhibitor]
Cn1c(SCC(=O)N2CCCC2)nnc1-c1ccc2c(c1)OCO2 | 1.5 | 10 | -0.5% | 0% | 9% | -1 | -37%
Cc1ccc(S(=O)(=O)N(C)C)cc1NC(=O)/C=C/c1cccs1 | 7.2 | 5 | 1.0% | 10% | ? | 9 | 8%

A draw from above in order of number of heavy atoms, lowest first.
SMILES | Menin MLL FP FL | CtBP-E1A blk | ClpP mod | gsp antag | Sfp inh | TRPV1 PAM | gsp agonist
CC1(C(=O)N/N=C/c2ccccc2)CC1(Cl)Cl (stereo not given) | 0.8 | -15 | -10% | 11% | 10% | 6 | 1%[15.4 µM]
Cc1ccc(S(=O)(=O)N(C)C)cc1NC(=O)/C=C/c1cccs1 | 7.2 | 5 | 1.0% | 10% | ? | 9 | 8%
O=C(CSc1n[nH]c(=O)n1-c1cccnc1)Nc1ccccc1Cl | . | -15 | -4.1% | -18% | 15% | 7 | 2%[15.4 µM]

The list continues.
SMILES | Menin MLL FP FL | CtBP-E1A blk | ClpP mod | gsp antag | Sfp inh | TRPV1 PAM | gsp agonist
COC(=O)c1ccc(-n2cnc3ccccc32)nc1 | 0.5 | 11 | -4.2% | 4% | 7% | -23 | -55%[inhibitor]
Fc1ccccc1COc1ccc(/C=N/n2cnnc2)cc1 | 1.6 | 1 | -1.5% | 3% | 3% | -13 | 30%
CC(C)NC(=O)Cn1c(SCC(=O)N2c3ccccc3CC2C)nc2ccccc21 (stereo not given) | 0.8 | 3 | -1.0% | -11% | 12% | 2 | 6%
Cc1ccc(OCc2nnnn2-c2ccccc2)cc1 | -0.2 | -4 | -1.2% | -4% | 14% | -26 | 23%[15.4 µM]
O=C1CN2C(=Nc3ccc(Br)cc3C2c2ccccc2)CCN1 (stereo not given) | 1.0 | -11 | -2.3% | -6% | 12% | 10 | 33%
CC(=O)N/C(=C/C(C)C)c1ccccc1 | . | -22 | -3.1% | -3% | . | 0 | 23%
COc1ccc(CN(CC(=O)NCc2ccco2)C(=O)CCC(=O)Nc2ccccn2)cc1 | 1.6 | -2 | 0.3% | 5% | -10% | 28 | ?
COc1ccc(/C=N/NC(=O)C(=O)/C=C2\NC3(CCCC3)Cc3ccccc32)cc1 | 2.1 | -11 | 6.9% | -17% | 9% | -4 | -15%
Cc1ccc2cc3cc(C(=O)NC4CCCCC4)oc3nc2c1 | . | . | 4.6% | 1% | 1% | -16 | -1%
Fc1ccc(NC(=S)NCCc2ccccc2)c(F)c1F | -0.1 | 4 | -9.7% | -14% | 9% | 26 | -14%
CC(C)c1ccc(NC2CCCN(C(=O)c3cccnc3)C2)cc1 (stereo not given) | . | -1 | -0.2% | -2% | -2% | -19 | 1%
N#CCC(CNc1ncc(C(F)(F)F)cc1Cl)OC(=O)c1ccc(Cl)cc1Cl (stereo not given) | 1.0 | 12 | 1.3% | -20% | 33%[activator] | 25 | -1%
Cc1ccc(NCCC(=O)c2ccc(Cl)c(Cl)c2)cc1 | 0.3 | -21 | -0.6% | 8% | 1% | -4 | -52%[inhibitor]
Cc1ccccc1-n1c(SCC(N)=O)nc2sc(-c3ccccc3)cc2c1=O | -0.1 | 3 | -1.7% | 4% | 5% | ? | -8%
CC(C)(C)C1CCC2(CC1)Nc1cccc3cccc(c13)N2 | 6.1 | -4 | ? | 4% | -3% | 17 | -43%[inhibitor]
CCOc1cc(/C=N/NC(=O)CN2CCCCC2)ccc1OCc1ccc(Cl)cc1 | 4.1 | -1 | -8.7% | 10% | -5% | -3 | 0%
Cn1c(-c2cccs2)nc2ccccc21 | -7.5 | 0 | 0.6% | 11% | 20% | 16 | 8%[15.4 µM]
Cc1cc(=O)[nH]c(N/N=C/c2c(C)nn(-c3ccccc3Cl)c2Cl)n1 | -0.2 | 5 | -24% | 25% | -10% | -6 | 21%[15.4 µM]
CSc1ccccc1C(=O)NC1CCCCC1 | 1.8 | 5 | 0.5% | -1% | 15% | -1 | -7%
CC(=O)c1c(C)[nH]c(C(=O)OCC(=O)C(C)(C)C)c1C | 3.7 | 2 | 0.1% | 3% | -3% | -11 | ?
CN(C)C(CNC(=O)C1CCN(C(=O)/C=C/c2ccccc2)CC1)c1ccccc1 (stereo not given) | -14 | -5 | . | 5% | 15% | -8 | 23%[15.4 µM]
CC(C)c1ccc(C(=O)N/N=C/c2cccc(Cl)c2Cl)cc1 | -1.6 | 3 | -1.0% | 5% | 6% | -4 | -48%[inhibitor]
COc1ccc2c(c1OC)C(=O)OC2C/C(=N\NC(N)=O)c1ccccc1 (stereo not given) | 0.8 | 10 | . | 0% | 17% | 2 | -19%
CCn1c(O)c(/C=N/N=C2CCCC2)c2ccc(C3=NNC(=O)CC3)cc21 | 14 | 0 | 0.0% | 4% | 16% | 5 | -21%
